# Compound activity as filed in PubChem BioAssay.
# Vaccinia Venus = vaccinia inhibition (Venus reporter); Vaccinia virus Venus reporter expression, fluorescence; Potency, µM (titrated, usually from 36.5 µM), without a hit: top-dose activity change, negative = inhibition, actives largely listed as inhibitors; 330,000 compounds, 0.46% hits; AID 720580; active means well fitted inhibition curve with a large enough effect; inconclusive means small, poorly fitted or top-dose-only effect; inactive means no such curve, though single readings can be large or run the other way; tested in A549 cells; further: nearly all actives have a fitted effect of over 30% in size; inactives centre near -10
# Vaccinia mCherry = inhibitors of vaccinia virus infection (mCherry reporter signal); Potency, µM (series often up to 36.5 µM), for the others: at the top dose activity change, negative = inhibition, hits mostly inhibitors; Vaccinia virus mCherry reporter infection, fluorescence; about a quarter of the inactives have no number; 310,000 compounds, 0.63% hits; AID 720579; active = well fitted inhibition curve with a large enough effect; inconclusive = small, poorly fitted or top-dose-only effect; inactive = no such curve, though single readings can be large or run the other way; tested in A549 cells; further: nearly all actives have a fitted effect of over 35% in size; inactives centre near -10
# Numbers without * were called inactive; i = inactive; ? = inconclusive; / = not tested or not shown; & = joins results of further samples. On the % scale 0 is the no-effect control and ±100 the full control effect; potency means the concentration at half of the fitted maximal effect. Rows were taken by chance; 0.82% or so of the library scored in one or more.
structure	Vaccinia Venus	Vaccinia mCherry
Cc1cc(C)c(NC(=O)Cn2cc(S(=O)(=O)Cc3ccccc3F)c3ccccc32)c(C)c1	-8.7%	-15.5%
CCOc1ccc(-c2nc(CSCC(=O)NCCc3ccccc3)c(C)o2)cc1	-9.4%	-11.1%
O=c1[nH]c(C2CCN(S(=O)(=O)/C=C/c3ccccc3)CC2)nc2c1nnn2Cc1ccccc1	-17.9%	-26.0%
CC1(C)CC(CC(=O)NC(=S)Nc2ccc([N+](=O)[O-])cc2)C(=O)O1 (configuration not stated)	-4.2%	i
COc1ccc(C(=O)Nc2ccccc2C(=O)NC(C)C)cc1OC	-8.3%	-11.2%
O=C(Nc1ccc(O)cc1)/C(=C\c1ccncc1)NC(=O)c1ccccc1	-4.8%	-2.3%
CC(C)NC(=O)C1(C)CCN1C(=O)C(c1ccccc1)c1ccccc1 (configuration not stated)	7.4%	8.3%
CSc1nc2ccc3nc(NC(=O)c4ccc(Cl)s4)sc3c2s1	-3.4%	i
CC1(C(=O)NS(=O)(=O)c2ccccc2)CCN1C(=O)Cc1cccs1 (configuration not stated)	-6.6%	20.8%
CCOC(=O)C1CCCN(CC(=O)c2ccc(F)cc2)C1 (configuration not stated)	3.1%	-10.9%
CCCOC(=O)c1ccc(NC(=O)C2C3CCC(C3)C2C(=O)O)cc1 (configuration not stated)	-6.1%	-10.2%
Cc1cc(C(=O)NC2CCCC2)c2ccccc2n1	-5.1%	i
c1coc(CN2CNc3nc4ccccc4n3C2)c1	2.6%	-13.3%
CCOC(=O)C1=C(C)N(CC)C(=S)NC1c1ccccc1OC(F)F (configuration not stated)	-18.5%	-7.8%
COc1ccc(N(CC(=O)N/N=C/c2cccnc2)S(=O)(=O)c2ccccc2)c(OC)c1	-10.6%	i
Cc1ccc(NC(=O)CSc2nnc3scc(-c4ccc(Cl)cc4)n23)cc1	-16.2%	-29.6%
COc1ccc(-c2noc(CCC(=O)NC3CCCCCC3)n2)cc1OC	-18.1%	-21.0%
CSc1ccc(CCNC(=O)c2ccc(-c3nc(COc4ccc(C)cc4)c(C)o3)cc2)cc1	-10.5%	-0.3%
O=C(NCC(c1ccc2c(c1)OCO2)N1CCN(c2ccccc2)CC1)c1ccccc1 (configuration not stated)	-6.2%	-8.4%
Brc1ccc(C=Nc2ccc3c(c2)OCCOCCOCCO3)s1	-9.2%	-7.7%

# Exported with two lines to a compound: 2 of the compounds above
# Values run as follows: Vaccinia Venus	Vaccinia mCherry
Cc1ccc(NC(=O)CSc2nnc3scc(-c4ccc(Cl)cc4)n23)cc1
 : -16.2%	-29.6%
CC(C)NC(=O)C1(C)CCN1C(=O)C(c1ccccc1)c1ccccc1 (configuration not stated)
 : 7.4%	8.3%

# Further entries follow.
structure	Vaccinia Venus	Vaccinia mCherry
COc1ccc(NC(=O)CN2CCN(CC(=O)Nc3ccccc3F)CC2)c(OC)c1	-15.8%&-10.5%	-21.2%
Cc1csc(CN(C)C(=O)CC2C(=O)NCCN2Cc2ccc(F)c(F)c2)n1 (configuration not stated)	-4.3%	-11.4%
COc1cc(C2c3c(-c4cc(C)ccc4O)n[nH]c3C(=O)N2Cc2ccco2)cc(OC)c1OC (configuration not stated)	-13.5%	-10.7%
COc1ccccc1Cn1c(C)c(C(=O)NCc2ccco2)sc1=O	-4.9%	i
CCOc1ccc(Nc2oc(Cc3ccccc3)nc2C#N)cc1	-7.6%	/
COc1cc2oc3ccccc3c(=O)c2cc1OC	5.2%	28.9%
CC(=O)N1c2ccc(S(=O)(=O)NCC3CCC(C(=O)NCc4ccco4)CC3)cc2CC1C (configuration not stated)	-12.5%	i
Cc1ccc(-c2n[nH]c(=S)n2/N=C/C=C/c2ccccc2[N+](=O)[O-])cc1	-7.5%	-20.2%
COc1cccc(NC(=S)N(CCc2c(C)[nH]c3ccc(C)cc23)Cc2cccs2)c1	?	?
CC(C)C(=O)Nc1ccc(-c2nnc(-c3ccccc3)o2)cc1	-0.2%	-12.8%
CCOC(=O)Cn1nc2sc3ccccc3n2c(=O)c1=O	-10.6%	i
N#CC(=C1C=C(Br)C(=NO)C=C1Cl)c1cccc2ccccc12	?	?
Cc1ccc(Sc2ncccc2C(=O)O)cc1C	5.3%	-9.5%
COc1ccc(S(=O)(=O)N2CCCC(C(=O)NCCCn3ccnc3)C2)cc1OC (configuration not stated)	-9.7%	-14.7%
CCOC(=O)c1ccc(NC(=O)CC2S/C(=N/N=C3/NC(=O)CS3)NC2=O)cc1 (configuration not stated)	1.8%	7.6%
CCn1nnc(NC(=O)c2cccnc2)n1	-14.1%	i
O=C(NCCc1ccc(S(=O)(=O)N2CCCC2)cc1)c1cccs1	-4.6%	/
CCCCC(c1nnnn1C1CCCC1)N1CCN(C2CCCC2)CC1 (configuration not stated)	-0.9%	/
CC(Sc1nc(N)cc(=O)[nH]1)C(=O)Nc1cccc(Cl)c1 (configuration not stated)	0.8%	-8.5%
CCC1NC(=O)c2cc(S(N)(=O)=O)c(Cl)cc2N1 (configuration not stated)	-11.3%	-10.6%

# Next section; it opens with the 2 that closed the last part.
structure	Vaccinia Venus	Vaccinia mCherry
CC(Sc1nc(N)cc(=O)[nH]1)C(=O)Nc1cccc(Cl)c1 (configuration not stated)	0.8%	-8.5%
CCC1NC(=O)c2cc(S(N)(=O)=O)c(Cl)cc2N1 (configuration not stated)	-11.3%	-10.6%
O=C1C(=O)N(CCN2CCOCC2)C(c2ccccc2)/C1=C(\O)c1ccc2c(c1)OCCO2 (configuration not stated)	-3.0%	i
COC(=O)c1ccc(OCC(O)CN(CC(C)C)CC(C)C)cc1 (configuration not stated)	3.4%	/
COc1ccc(OC)c2sc(N(CCN(C)C)C(=O)/C=C/c3cccs3)nc12	?	-26.1%
COC(=O)C1=C(C)N(CCc2c[nH]c3ccc(OC)cc23)C(=O)C1	-11.0%	-7.7%
Cc1cc(C)c2c(-n3cccc3)c(C(=O)NCCCN3CCCCC3C)sc2n1 (configuration not stated)	-7.6%	-12.4%
NC(=O)C1(N2CCCCC2)CCN(C(=S)Nc2cccc(Cl)c2)CC1	-5.4%	-16.3%
O=C1CCC([N+](=O)[O-])C(c2cccc(Br)c2)N1 (configuration not stated)	3.3%	-9.1%
O=C(NCc1cccs1)C1CCCN(S(=O)(=O)c2ccc(Br)s2)C1 (configuration not stated)	-27.7%	/
S=c1[nH]nc(-c2ccco2)n1/N=C/c1cccc(Cl)c1	-11.3%	-9.8%
CC(=O)Nc1c(O)c2ccccc2[nH]c1=O	0.3%	-4.2%
O=C(NNc1ccccc1[N+](=O)[O-])Nc1ccc(F)cc1	-7.6%	-10.5%
Fc1ccc(N=C2NN=C(c3cc(F)ccc3F)CS2)cc1	?	?
COC(=O)c1sc(SC)c(-c2ccon2)c1C	-15.8%	-15.5%
COc1ccccc1CCNc1ncnc2sc(C(=O)N3CCCN(C=O)CC3)c(C)c12	-6.3%	-12.8%
Fc1ccc(-c2csc(-c3ccncc3)n2)cc1	-1.9%	-13.2%
N#Cc1ccc(N/N=C/c2cn(-c3ccccc3)nc2-c2ccccc2)c([N+](=O)[O-])c1	1.8%	-7.8%
CC(C)c1ccc(NC(=O)COC(=O)CC2CCCC2)cc1	-6.3%	-14.4%
COc1cccc(C2CCCCN(C)C2=O)c1 (configuration not stated)	8.2%	-2.2%
Cc1ccc(NC(=O)CC(C)S(=O)(=O)c2ccc3c(c2)NC(=O)CO3)cc1Cl (configuration not stated)	-7.4%	0.2%
CC(/C=C/c1ccco1)=N/NC(=O)c1ccccc1Cl	4.8%	-8.6%
COc1ccc(Nc2c(-c3cccc(O)c3)nc3cnccn23)cc1	3.2%	-7.4%
Cc1cc(/C=N/NC(=O)CC2(C)OCCO2)c(C)n1-c1ccc(Cl)c(Cl)c1	-0.5%	/
N#C/C(=C\c1ccc(N2CCOCC2)o1)c1nc2ccccc2[nH]1	/	1.2%
Cc1ccc(NC(=O)C2CCCN(S(=O)(=O)c3cccc4nsnc34)C2)c(C)c1 (configuration not stated)	-9.5%	-23.1%
CCc1nc2oc3ccc(C)cc3c(=O)c2cc1C(=O)OC	-1.9%	-4.4%
COc1ccc(C)cc1NC(=O)c1oc2ccc(S(=O)(=O)N3CCC4(CC3)OCCO4)cc2c1C	-4.7%	-4.2%
CCOC(=O)[C@]12Cc3cc(C)ccc3[C@H]1N(C)C(=O)c1cc(OC)ccc12	?	?
O=C(N/N=C/c1cccc([N+](=O)[O-])c1)c1cccs1	-4.7%	-9.6%
COc1ccc(S(=O)(=O)NC(C)C(=O)NCc2ccncc2)cc1C (configuration not stated)	-0.2%	-18.9%
COc1ccc(S(=O)(=O)N(C)C[C@H]2Oc3ccc(NS(=O)(=O)c4ccccc4)cc3C(=O)N([C@H](C)CO)C[C@@H]2C)cc1	-18.4%	i
CC1=C(C(=O)N2CCOCC2)C(c2cccs2)NC(=O)N1 (configuration not stated)	-9.8%	-11.3%
CCCCN(CC)CCNC(=O)c1cc2c(=O)[nH]c3ccccc3c2s1	-8.0%	-4.3%
COc1ccc(C2C(C(N)=O)=C(C)Nc3nc(CCCO)nn32)cc1OC (configuration not stated)	-16.1%	-17.3%
CCOC(=O)NN1C(=O)c2ccccc2NC1c1ccc(OC)cc1 (configuration not stated)	-17.0%	i
Cc1c(-c2nsc(NC(=O)c3ccc(Cl)cc3)n2)nnn1-c1ccc(C(C)C)cc1	-22.0%	-17.7%
O=C(NCc1cccnc1)C(=O)c1c[nH]c2ccccc12	-14.2%	-7.0%
CC(CN1CCCCC1)OC(=O)c1ccco1 (configuration not stated)	-3.8%	-10.3%
O=C(CNC(=O)c1ccccc1)NCC(=O)OCC(=O)c1ccc2ccccc2c1	-16.1%	-10.1%
CCN(CC)C(=O)Cn1c(=O)n(CCCCCC(=O)NCc2ccccc2)c(=O)c2sccc21	1.0%	-17.2%
COc1ccc(NC(=O)CO/N=C(\C)c2cccs2)cc1	-13.1%	-13.4%
CCCC(=O)Nc1nnc(SCC(=O)NCc2ccco2)s1	-6.1%	-13.9%
C#CCOc1ccc(/C=C2/C(=O)ON=C2C)cc1Br	-3.6%	i
Cc1ccc2cc(C(c3nnnn3C(C)(C)C)N3CCCCCC3)c(=O)[nH]c2c1 (configuration not stated)	-7.9%	-4.0%
O=c1[nH]c(N/N=C/c2ccc(O)cc2)nc2ccccc12	-19.2%	-8.7%
Cc1cc(C)nc(SCc2nnc(SCC(=O)Nc3nccs3)n2C)n1	-17.7%	-14.5%
CCC1S/C(=N/S(=O)(=O)c2ccc(N)cc2)NC1=O (configuration not stated)	-4.6%	-11.7%
Cc1cc(C)n(-c2cccc(Cl)c2)c(=O)c1C#N	-8.0%	-11.2%
O=C(O)C1(Nc2ccc(Br)cc2)CCCC1	-9.0%	i
CN(C(=O)CCCN1CCCC1=O)C1CCCN(Cc2ccccc2F)C1 (configuration not stated)	-11.3%	-17.0%
COc1ccc(N(C(=O)c2ccn[nH]2)C(C(=O)NC2CCCC2)c2ccc(F)cc2)cc1 (configuration not stated)	-11.1%	-24.7%
C=CCNC(=O)c1ccc2c(c1)N(CC)C(=O)c1ccccc1S2	-13.3%	-12.1%
CC(C)CCN1CCN(Cc2ccon2)CC1CCO (configuration not stated)	-10.3%	-19.3%
CC(C)CCN1CCN(C/C=C/c2ccco2)CC1CCO (configuration not stated)	3.6%	-8.4%
Cc1cccc(C)c1NC(=O)C(c1ccncc1)N1CCN(CCN(C)C)CC1 (configuration not stated)	2.0%	-5.1%
O=C1Nc2ccc(Br)cc2C12OCCO2	1.7%	i
COCCn1cc(C(=O)NCCCOC(C)C)c2c3ccccc3n(C)c2c1=O	-10.8%&7.5%	-1.2%&-6.8%
COC(=O)/C=C1\C(=O)N(c2nc3ccccc3s2)C(=S)N1c1ccc(F)cc1	-9.3%	-13.6%
Cc1ccc(C)c(CS(=O)(=O)c2cn(CC(=O)N3CCCCC3)c3ccccc23)c1	-5.3%	-4.1%
Cc1cc(C)cc(NC(=O)Cn2nnc(C(=O)NCc3ccc4c(c3)OCO4)c2N)c1	-14.9%	-5.1%
COc1ccc(CCCNC(=O)C2CCC(=O)N(CC3CCCCC3)C2)cc1 (configuration not stated)	-13.5%	i

# Continued.
structure	Vaccinia Venus	Vaccinia mCherry
COc1ccc(CN2CCC[C@]3(N[C@H](c4ccc(C(F)(F)F)cc4)[C@@H]4C(=O)N(Cc5ccccc5)C(=O)[C@@H]43)C2=O)cc1	?	-25.3%
COc1ccc(Cn2cc(Cn3c4ccccc4c(=O)n3C(C)C)nn2)cc1	-9.4%	i
Cc1cc(C)cc(NC(=O)CSc2ccc(-c3cccs3)nn2)c1	?	-19.4%&-29.9%
CN(c1cccc(F)c1)c1cc2c(c3c1ccn3C)C1CCC2C1 (configuration not stated)	-1.8%	18.1%
Cc1cccc(NS(=O)(=O)c2cc3c4c(c2)CCC(=O)N4CCC3)c1	-13.4%	i
Fc1ccc2c(c1)NC(c1ccncc1)=NC(c1cccs1)=N2	-1.6%	1.0%
CC(Sc1nnc(N)s1)C(=O)c1c(N)n(C)c(=O)n(C)c1=O (configuration not stated)	-9.9%	-4.3%
OCCNc1nc2ccccc2n1CC(O)c1ccccc1 (configuration not stated)	-6.1%	-10.5%
Cc1ccccc1NC(=O)NC1(C(=O)NCC2CCCO2)CCCCC1 (configuration not stated)	-5.7%	-11.0%
